Compound activity deposited in PubChem by several laboratories.
Vif A3G: inhibitors of Vif binding to APOBEC3G peptide, primary screen, biochemical, TR-FRET, GST-Vif 1-94, biotin-A3G peptide, dose response retest (AID 1117319) | TR-FRET GST-Vif / biotin-A3G peptide binding; higher % means a stronger effect; test concentration not given here; strong numbers were not always called active | inhibition, %; hits with a dose series show IC50 in µM | 260,000 compounds, 0.57% hits;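 active = above the screen mean plus three standard deviations and confirmed in dose response; inconclusive = results disagree or hit not tested in dose response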;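 also: Vif residues 1-94 fused to GST binding biotinylated APOBEC3G peptide 110-148; 0% = full assay without inhibitor and 100% = GST in place of GST-Vif; retest series ran down from 100 µM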
Calb FLC: affects C. albicans growth with fluconazole. AID 1979. 300,000 compounds, 0.57% hits. growth inhibition, % (no concentration beside the values). C. albicans CaCi-2 (fluconazole-resistant clinical isolate) + fluconazole, Alamar Blue growth, 48 h;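 active = most replicates above 75%; inconclusive = exactly half above 75%; inactive = most below 75%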;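 also: all wells also contain fluconazole at 8 µg/ml as a sub-toxic cotreatment; 0% = median of DMSO wells and 100% = median of geldanamycin control wells; wells of about 8 µL received 7.5 nL stock; the first replicate is given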
LANA-H2B inh: blocks KSHV LANA binding to histone H2A/H2B; inhibition, % (test concentration not listed); AID 2629; 320,000 compounds, 0.6% hits; Q9QR71; cell-free LANA-H2A/H2B peptide, fluorescence polarization; in the data active = inhibition mostly above about 10%, no sharp cut-off; inactive = mostly below about 6.7%;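 also: stock transfer was 7.5 nL into about 10 µL; 0% = median of vehicle wells and 100% = median of positive control wells; one replicate is shown; the record names a cut of 25% in any replicate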
ALR inh: blocks human ALR sulfhydryl oxidase activity. inhibition, % (test concentration not listed). 290,000 compounds, 3.8% hits. P55789. purified ALR, DTT oxidation, H2O2 HRP-luminol luminescence;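 active = mean and each replicate at 75% or more; inconclusive = only one of the two met; inactive = neither met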;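 also: stock transfer was 7.5 nL into about 7.5 µL; 0% = neutral wells and 100% = wells with inactivated enzyme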
Target sequence (P55789 whole entry, looked up): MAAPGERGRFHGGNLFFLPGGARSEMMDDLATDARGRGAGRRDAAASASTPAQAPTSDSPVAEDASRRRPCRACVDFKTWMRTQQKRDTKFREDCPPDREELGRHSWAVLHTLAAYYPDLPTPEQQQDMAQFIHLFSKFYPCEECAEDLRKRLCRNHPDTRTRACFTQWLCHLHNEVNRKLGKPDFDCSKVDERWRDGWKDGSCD
HNF4A DNA FP: change in binding of human HNF4 alpha to DNA; P41235; HNF4a-FITC DNA binding, fluorescence polarization, 1 h; activity change, % at 10 µM; 360,000 compounds, 0.3% hits; in the data active = activity change above about 30%, passing the limit was not always enough;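 also: controls were the assay level and a saturating level of protein; the project sought stronger binding though the title names inhibitors; some compounds called inactive have numbers as strong as hits; positive values seem to mean higher polarization but the record does not say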
Target sequence (P41235 whole entry, looked up): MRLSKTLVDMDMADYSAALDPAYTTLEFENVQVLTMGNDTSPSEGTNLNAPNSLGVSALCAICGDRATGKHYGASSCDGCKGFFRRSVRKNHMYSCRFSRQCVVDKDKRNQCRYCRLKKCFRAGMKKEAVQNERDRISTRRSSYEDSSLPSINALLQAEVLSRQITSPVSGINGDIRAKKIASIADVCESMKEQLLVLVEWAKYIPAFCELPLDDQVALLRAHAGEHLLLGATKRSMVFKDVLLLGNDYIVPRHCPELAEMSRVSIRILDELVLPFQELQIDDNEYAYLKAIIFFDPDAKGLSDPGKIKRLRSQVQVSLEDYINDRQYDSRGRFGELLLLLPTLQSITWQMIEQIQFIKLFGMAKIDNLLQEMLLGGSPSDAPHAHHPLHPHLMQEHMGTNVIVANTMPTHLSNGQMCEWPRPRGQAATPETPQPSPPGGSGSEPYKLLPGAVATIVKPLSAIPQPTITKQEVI
RanGTP-Impb inh: disruptors of Ran-importin-beta complex formation – biochemical, FRET, CFP-Ran, YFP-importin-beta, homogeneous, primary screen. cell-free CFP-Ran/YFP-importin-beta FRET ratio. inhibition, % (no concentration beside the values). 300,000 compounds, 1.1% hits;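 active = most replicates above 15%; inconclusive = exactly half above 15%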;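 also: 0% = DMSO wells and 100% = Ran loaded with GDP instead of GTP; wells of about 40 µL received 100 nL stock; the first replicate is given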
Beta2AR agonist: human beta-2 adrenergic receptor agonism by FAP; Am2.2-beta2AR cells, FAP receptor internalization, flow cytometry; reference of the scale not given here; 340,000 compounds, 0.43% hits; response, % (test concentration not listed); P07550; AID 504454;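 active = response above a set limit, near 3 SD of response in nonfluorescent compounds, cut at about 42% in these data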;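 also: stock transfer was 100 nL into about 11 µL; a reference agonist was the positive control; negative values mostly stem from fluorescent compounds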
An asterisk follows results filed as active; i = inactive; ? = inconclusive; · = no result given; & = joins results of further samples.

1	CC(=O)Nc1cc(OC(=O)c2ccco2)cc(OC(=O)c2ccco2)c1
2	CC(C)(O)CC[C@@H](O)[C@](C)(O)[C@H]1CC[C@@]2(O)C3=CC(=O)[C@@H]4C[C@@H](O)[C@@H](O)C[C@]4(C)C3CC[C@]12C (stereo not given in full)
3	COc1ccc(CNCC(=O)Nc2cc(OC)cc(OC)c2)cc1
4	COc1ccc(CSc2n[nH]c(C)n2)cc1Br
5	COc1ccc(C(NC(=O)C(C)C)c2c(O)ccc3ccccc23)cc1OC (stereo not given)
6	CC(C)[C@H](NC(=O)c1nn(Cc2ccccc2)c(=O)c2ccccc12)C(=O)O
7	CCOC(=O)c1c(N=CN(C)C)c2cc([N+](=O)[O-])cnc2n1C
8	O=C(CSc1ccc(-c2cccc([N+](=O)[O-])c2)nn1)N1CCCC1
Compound | 1 | 2 | 3 | 4 | 5 | 6 | 7 | 8
Beta2AR agonist | 2 | 0 | 3 | -3 | 2 | 0 | 5 | -10
RanGTP-Impb inh | -1.6 | 9.1 | -3.1 | 5.6 | -1.0 | 1.3 | ? | 3.6
ALR inh | 24 | -5 | · | 27 | 8 | -2 | 12 | -5
Calb FLC | 2 | -5 | -6 | -7 | 17 | 3 | 4 | 28
Vif A3G | -3% | -3% | -4% | 18% | · | · | -12% | -8%
LANA-H2B inh | 0.3 | -1.1 | -4.2 | -4.1 | -3.0 | -0.2 | -3.6 | -6.4
HNF4A DNA FP | -0.2 | -3.5 | -1.8 | 1.9 | 0.2 | -1.1 | 2.5 | 2.4

Arranged by length of the SMILES (lowest first): 4 of the compounds above
4	COc1ccc(CSc2n[nH]c(C)n2)cc1Br
3	COc1ccc(CNCC(=O)Nc2cc(OC)cc(OC)c2)cc1
6	CC(C)[C@H](NC(=O)c1nn(Cc2ccccc2)c(=O)c2ccccc12)C(=O)O
2	CC(C)(O)CC[C@@H](O)[C@](C)(O)[C@H]1CC[C@@]2(O)C3=CC(=O)[C@@H]4C[C@@H](O)[C@@H](O)C[C@]4(C)C3CC[C@]12C (stereo not given in full)
Compound | 4 | 3 | 6 | 2
Beta2AR agonist | -3 | 3 | 0 | 0
RanGTP-Impb inh | 5.6 | -3.1 | 1.3 | 9.1
ALR inh | 27 | · | -2 | -5
Calb FLC | -7 | -6 | 3 | -5
Vif A3G | 18% | -4% | · | -3%
LANA-H2B inh | -4.1 | -4.2 | -0.2 | -1.1
HNF4A DNA FP | 1.9 | -1.8 | -1.1 | -3.5

The listing continues:
9	CC1=CC(C)(C)N=C(Nc2nc(C)c3cc(C)cc(C)c3n2)N1
10	c1ccc2c(c1)[nH]c1c(N3CCN(C4CCCCC4)CC3)ncnc12
11	COC(=O)c1ccccc1NC(=O)CN(c1ccccc1)S(=O)(=O)N(C)C
12	Cc1cccc2c(=O)n3c(cc12)-c1[nH]c2ccccc2c1CC3
13	COc1ccc(/C=C2/CCc3ccccc3C2=O)cc1OC
14	O=C(O)CCC(=O)N1CCN(Cc2ccc3c(c2)OCO3)CC1
15	COc1ccc(NC(=O)CN(C)C(=O)/C=C/c2cn(-c3ccccc3)nc2-c2cccs2)cc1
16	Cn1cc(S(=O)(=O)N2CCOCC2)cc1C(=O)NCCc1ccccc1
Compound | 9 | 10 | 11 | 12 | 13 | 14 | 15 | 16
Beta2AR agonist | 26 | -8 | 0 | 12 | 14 | 0 | 3 | -5
RanGTP-Impb inh | -1.4 | 7.3 | 0.4 | · | -1.8 | 2.2 | -0.3 | -1.8
ALR inh | · | -5 | 3 | · | -11 | -4 | 4 | -1
Calb FLC | -16 | 13 | 20 | · | ? | 2 | 13 | -2
Vif A3G | 90% | -1% | 3%&-4% | 3% | 2% | · | 2% | ·
LANA-H2B inh | 0.5 | -3.7 | 2.1 | · | -1.9 | 4.0 | 0.1 | -3.3
HNF4A DNA FP | 5.5 | 1.3 | 1.6 | -3.2 | -4.4 | -4.4 | -4.4 | -0.4

17	COc1ncccc1-c1nnn(-c2ccccc2Br)n1
18	O=[N+]([O-])c1ccc(N2CCN(S(=O)(=O)c3ccc4ccccc4c3)CC2)cc1NCC1CCCO1 (stereo not given)
19	COc1cc(/C=C(\C#N)C(=O)Nc2ccc(SC(F)F)cc2)cc(OC)c1OC
20	COC(=O)c1sc2ccccc2c1-n1cccc1C(=O)C(=O)Nc1ccc(OC)cc1
21	COc1ccc(CC(=O)Nc2cc(S(=O)(=O)N3CCCCC3)ccc2C)cc1OC
22	Cc1ccc(C(=O)NC2CCSC2=O)cc1 (stereo not given)
23	COc1ccc(N2CC(C(=O)N3CCN(C(=O)c4ccco4)CC3)CC2=O)cc1 (stereo not given)
24	CCCNC(=O)C(Cc1cccc(Cl)c1)NC(=O)c1ccccc1 (stereo not given)
Compound | 17 | 18 | 19 | 20 | 21 | 22 | 23 | 24
Beta2AR agonist | -5 | 2 | 4 | 3 | -5 | 4 | 1 | 0
RanGTP-Impb inh | 0.4 | -1.1 | -1.1 | -2.6 | 0.4 | 1.8 | 5.9 | ·
ALR inh | 33 | -5 | 12 | -1 | -16 | 1 | · | -1
Calb FLC | -15 | ? | -5 | 0 | -7 | -11 | 4 | ·
Vif A3G | · | 0% | 4% | 20% | 4% | 24% | · | ·
LANA-H2B inh | -6.1 | 5.1 | 0.3 | 7.3 | -0.6 | -0.9 | -5.8 | 1.5
HNF4A DNA FP | 2.0 | -0.6 | -1.4 | 3.5 | 1.1 | 0.5 | 2.1 | 2.3

Single records (already shown):
COc1cc(/C=C(\C#N)C(=O)Nc2ccc(SC(F)F)cc2)cc(OC)c1OC is listed as Beta2AR agonist: 4; RanGTP-Impb inh: -1.1; ALR inh: 12; Calb FLC: -5; Vif A3G: 4%; LANA-H2B inh: 0.3; HNF4A DNA FP: -1.4
CCCNC(=O)C(Cc1cccc(Cl)c1)NC(=O)c1ccccc1 (stereo not given) is listed as Beta2AR agonist: 0; RanGTP-Impb inh: ·; ALR inh: -1; Calb FLC: ·; Vif A3G: ·; LANA-H2B inh: 1.5; HNF4A DNA FP: 2.3
Cc1ccc(C(=O)NC2CCSC2=O)cc1 (stereo not given) is listed as Beta2AR agonist: 4; RanGTP-Impb inh: 1.8; ALR inh: 1; Calb FLC: -11; Vif A3G: 24%; LANA-H2B inh: -0.9; HNF4A DNA FP: 0.5

The list continues.
25	COc1ccc(C(CNS(=O)(=O)c2ccc(F)cc2)N2CCN(C)CC2)cc1 (stereo not given)
26	CC(=O)c1cccc(NC(=O)CN(c2ccc(F)cc2)S(C)(=O)=O)c1
27	CC1(C)COC(c2ccc(F)c([N+](=O)[O-])c2)=N1
28	CCN(CC)CCCN(CC(=O)N(C)Cc1ccccc1)C(=O)c1ccc([N+](=O)[O-])cc1
29	Cc1ccc(/C=N/NC(=O)c2ccc(N(C)S(=O)(=O)c3ccccc3)cc2)cc1
30	CC1CC(C)CN(S(=O)(=O)c2cccc(C(=O)OCCN3CCCC3=O)c2)C1 (stereo not given)
31	CCC12CN(C(=O)c3ccc(C)cc3)CC(CC)(CN(C(=O)c3ccc(C)cc3)C1)C2=O
32	Cc1ccc(/C=c2\sc3n(c2=O)CN(c2ccc(Br)cc2)CN=3)o1
Compound | 25 | 26 | 27 | 28 | 29 | 30 | 31 | 32
Beta2AR agonist | 2 | 2 | i | 1 | 14 | 8 | -3 | 7
RanGTP-Impb inh | -5.2 | 0.4 | 0.6 | ? | 5.5 | 1.3 | 3.4 | -2.1
ALR inh | · | -9 | -7 | -20 | -1 | · | 1 | -9
Calb FLC | -3 | 2 | 0 | -3 | 29 | 1 | -6 | 2
Vif A3G | 6% | 1% | · | · | 6% | 7% | 0% | 23%
LANA-H2B inh | 9.1 | 0.8 | 3.5 | -0.8 | -3.8 | 3.8 | -0.9 | -2.1
HNF4A DNA FP | -0.2 | 1.2 | 1.8 | -1.6 | 0.3 | 1.9 | 2.5 | -2.7

33	CC(C)(C)OC(=O)NCCc1nnc(SCc2ccccc2Cl)o1
34	c1ccc2c(c1)Cc1ccccc1O2
35	COc1ccc(C(=O)c2sc(Nc3ccccc3)nc2N)cc1
36	N#Cc1ccc(-c2cccnc2)nc1SCC(=O)Nc1sc2c(c1C#N)CCC2
Compound | 33 | 34 | 35 | 36
Beta2AR agonist | 12 | 3 | -8 | 13
RanGTP-Impb inh | 0.0 | · | -1.0 | -4.7
ALR inh | -5 | 5 | 16 | -4
Calb FLC | 5 | · | 7 | -16
Vif A3G | 11% | · | · | 3%
LANA-H2B inh | 0.5 | -1.0 | 0.6 | 0.8
HNF4A DNA FP | -3.5 | 0.8 | 1.5 | 4.8
